Assay outcomes as filed in PubChem.
MT1-MMP act inh: blocks activation of human MT1-MMP; P50281; HT1080 RFP-PRO-GFP cells, GFP/RFP ratio fluorescence, overnight; percent of plate control window, DMSO zero; GFP/RFP ratio change, % at 20 µM; 360,000 compounds, 0.061% hits; AID 651647;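 active = GFP/RFP ratio change of at least 30% with cell ATP level not reduced by more than half and red fluorescence within 50% of control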; also: strong numbers were not always called active
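Assay system – RFP-PRO-GFP reporter HT1080 cells · Compound dosing – single dose of 20 µM compound, 1% DMSO final · Incubation – overnight compound exposure at 37 °C · Measure – GFP/RFP fluorescence ratio · Benchmarks – DMSO wells and RFP-L50D-GFP cells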
eIF4H inh: inhibitors of RNA binding by human eIF4H. inhibition, % at 35 µM. Q15056. 290,000 compounds, 0.94% hits. eIF4H fluorescence polarization binding assay;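 active = 50% or more with normal probe brightness, or confirmed in later tests; about a fifth of its hits are not listed in these tables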;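 also: calls also rest on retests at 20 µM and on dose response follow-up; 0% = protein and probe with vehicle and 100% = probe without protein; strong numbers were not always called active; many hits fall short of the cut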
PABP FP inh: blocks human PABP binding to poly(A) RNA; inhibition, % at 35 µM; P11940; fluorescence polarization; 290,000 compounds, 1% hits; AID 2014;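 active = 50% or more with normal probe brightness, or confirmed in later tests; about a fifth of its hits are not listed in these tables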;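 also: calls also rest on retests at 20 µM and on dose response follow-up; controls were probe without protein and protein plus probe with vehicle; some compounds called inactive have numbers as strong as hits; many hits fall short of the cut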
Rce1 inhib: blocks yeast Ras-converting enzyme; calls only; Q03530; yeast membranes, quenched prenylated peptide cleavage fluorescence; AID 2563; 290,000 compounds, 0.27% hits;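 active = fall in fluorescence gain of 50% or more versus controls, with final raw signal at or below 3038400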;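 also: plate controls were neutral control wells for no effect and wells lacking membranes for full effect; tested at 10 µM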
Target sequence (Q03530 whole entry, looked up): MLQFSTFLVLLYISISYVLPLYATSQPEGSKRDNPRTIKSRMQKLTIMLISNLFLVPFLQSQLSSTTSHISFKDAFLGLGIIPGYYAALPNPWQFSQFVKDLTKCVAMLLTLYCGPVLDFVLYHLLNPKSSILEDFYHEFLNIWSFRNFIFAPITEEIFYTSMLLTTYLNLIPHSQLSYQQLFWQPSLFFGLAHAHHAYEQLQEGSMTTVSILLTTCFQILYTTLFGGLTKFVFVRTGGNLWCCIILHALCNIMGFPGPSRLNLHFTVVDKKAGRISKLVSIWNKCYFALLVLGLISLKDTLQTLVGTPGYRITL
Yeast UUG start: yeast start codon fidelity modulation | AID 602363 | activity score, % at 18.7 µM | S. cerevisiae UUG-firefly luciferase reporter, luminescence/redox ratio | 350,000 compounds, 0.13% hits;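 active = replicate mean at a twofold rise or more, about +100% in these data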;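 also: firefly luciferase made from a UUG start codon reports start codon fidelity; reporter light over untreated wells divided by growth signal over untreated wells; some hits fall short of that in this replicate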
Env fusion inh: HIV envelope-mediated fusion inhibition; HeLa-JRFL Env/CEM21 cell fusion, luciferase; 360,000 compounds, 1.1% hits; AID 651610; inhibition, % at 12.3 µM;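 active = mean replicate inhibition score of at least 50 and every replicate individually at or above 50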;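 also: 0% = plate neutral controls and 100% = maraviroc near 300 nM; one replicate is shown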
CSC inhib: cancer stem cell inhibition | inhibition, % at 7.5 µM | cancer stem cell-like cells viability, luminescence | AID 2717 | 300,000 compounds, 1.1% hits;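 active = mean at 75% or more and at least half the replicates too; tested in HMLE shEcad cells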;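 also: 0% = median of negative and 100% = median of positive control wells; the first replicate is given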
MT1-MMP act inh RFP: recorded beside MT1-MMP act inh, whose call it bears; RFP signal change, %; measured here: RFP expression control read;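 0 = vehicle wells; hits needed this value within 50% of zero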
* marks the source's active call; other numbers are inactive results; i = inactive; . = not tested or not shown.

1	COc1ccccc1N1CCN(c2cc(=O)n(Cc3ccc(F)cc3)c(=O)[nH]2)CC1
2	CC(O)(c1cccc(F)c1)c1nc(-c2csc3ccccc23)cs1 (stereo unspecified)
3	C=CCn1c(CSCc2ccccc2)nnc1SCC(=O)NCc1ccccc1
4	Cc1cc(NC(=O)CC2Oc3ccccc3NC2=O)ccc1Br (stereo unspecified)
5	COc1ccc(C(=O)N/N=C/c2cc3ccccc3[nH]c2=O)cc1
6	N=c1c(S(=O)(=O)c2ccccc2)cc2c(=O)n3ccccc3nc2n1Cc1ccco1
7	CC(C)c1nnc(SCC(=O)NCc2ccco2)n1C
8	Cc1ccc(OC(=O)CCC(=O)Oc2ccc(C)cc2C)c(C)c1

| Assay by compound | 1 | 2 | 3 | 4 | 5 | 6 | 7 | 8 |
| --- | --- | --- | --- | --- | --- | --- | --- | --- |
| MT1-MMP act inh | 2 | -1 | 6 | 4 | 4 | -7 | -2 | 8 |
| PABP FP inh | -8 | . | 1 | -8 | -6 | 60* | 6 | . |
| CSC inhib | 50 | . | -5 | -2 | . | -2 | . | . |
| Yeast UUG start | -12 | -16 | -4 | 0 | -10 | 100 | -10 | 11 |
| eIF4H inh | 6 | . | 0 | -9 | 3 | 95* | 5 | . |
| Rce1 inhib | i | . | i | i | i | i | i | . |
| MT1-MMP act inh RFP | -3 | 0 | 4 | 0 | 3 | -7 | 1 | 10 |
| Env fusion inh | . | 3 | . | 11 | -9 | . | 18 | 24 |

9	C=CCNC(=S)N/N=C/c1cn(C)c2ccccc12
10	O=C(O)c1cccc(S(=O)(=O)N2CC=C(c3ccccc3)CC2)c1
11	CCc1cc(SC#N)cc(C)c1N
12	CCN(CC(=O)Nc1ccc(Cl)c(S(=O)(=O)N(C)C)c1)CC(=O)NC(C)C
13	COCCNC(=O)CSc1ncnc2sccc12
14	CCN(CC(=O)Nc1ccccc1OC)C(=O)c1cc(S(=O)(=O)N2CCCCCC2)ccc1OC
15	Cc1ccc(C)c(NC(=O)CN(C)C(=O)C2=NNC(=O)CC2)c1
16	CCOC(=O)c1sc(N/N=C/c2ccc(N(C)C)cc2)nc1C

| Assay by compound | 9 | 10 | 11 | 12 | 13 | 14 | 15 | 16 |
| --- | --- | --- | --- | --- | --- | --- | --- | --- |
| MT1-MMP act inh | 3 | -5 | 1 | 0 | 2 | 0 | 1 | 5 |
| PABP FP inh | -6 | . | -4 | 2 | 5 | . | . | 2 |
| CSC inhib | -11 | -9 | -7 | 12 | -17 | -19 | -12 | -8 |
| Yeast UUG start | -18 | 0 | . | -5 | -17 | 15 | . | -15 |
| eIF4H inh | 0 | . | 4 | 2 | -4 | . | . | -4 |
| Rce1 inhib | i | . | i | i | i | i | . | i |
| MT1-MMP act inh RFP | -1 | 1 | -2 | 1 | 2 | 1 | 4 | -1 |
| Env fusion inh | -10 | . | 4 | -2 | -5 | 34 | 1 | -6 |

17	O=[N+]([O-])c1ccc(N/N=C2/CCCCC2c2ccccn2)c([N+](=O)[O-])c1 (stereo unspecified)
18	CCOc1ccccc1C(=O)NCC(=O)NC(C)c1ccc(-n2ccnc2)cc1 (stereo unspecified)
19	Cc1c(C(=O)NC(C)c2ccccc2)c(-c2ccccc2)nn1-c1ccccc1 (stereo unspecified)
20	CCN(c1ccccc1)S(=O)(=O)c1cccc(C(=O)NCc2ccccn2)c1
21	CCOc1ccc(OCC)c(NC(=O)C2CCCN(S(=O)(=O)c3c(C)noc3C)C2)c1 (stereo unspecified)
22	CCOC(=O)C1(Cc2ccc(OC)cc2)CCN(C(=O)c2csc(C)n2)CC1
23	COCCCNC(=O)C1CCCN(S(C)(=O)=O)C1 (stereo unspecified)
24	O=C(Cc1ccccc1)NC(=S)Nc1ccc(OC(F)F)cc1

| Assay by compound | 17 | 18 | 19 | 20 | 21 | 22 | 23 | 24 |
| --- | --- | --- | --- | --- | --- | --- | --- | --- |
| MT1-MMP act inh | -4 | 4 | 1 | -1 | 0 | 4 | 1 | 5 |
| PABP FP inh | 4 | . | 6 | . | 3 | -3 | 3 | -5 |
| CSC inhib | -2 | . | -9 | -14 | 4 | -24 | -7 | -1 |
| Yeast UUG start | . | . | -16 | -23 | -12 | -16 | . | -28 |
| eIF4H inh | 4 | . | 4 | . | 0 | -3 | 2 | 0 |
| Rce1 inhib | i | i | . | i | i | i | i | i |
| MT1-MMP act inh RFP | -5 | -3 | -8 | 0 | 0 | 2 | 7 | 2 |
| Env fusion inh | 0 | -4 | . | . | -203 | 0 | -4 | -4 |

25	O=C(O)COc1ccccc1/C=C1\SC(=Nc2ccc(F)cc2)N(c2ccc(F)cc2)C1=O
26	Cc1ccc(Cn2nnc3c(=O)[nH]c(C4CCN(S(=O)(=O)c5ccc(S(=O)(=O)NC6CC6)cc5)CC4)nc32)cc1
27	CCn1nc(C)c(Oc2ccccc2O)c1C
28	Nc1nc(SCC(=O)Nc2ccccc2Oc2ccccc2)n[nH]1
29	Cc1ccc2c(c1)cc(C(=O)N1CCN(c3ccccn3)CC1)n2C
30	Cc1ccc(C)c(S(=O)(=O)N2CCCOC2CNC(=O)C(=O)NCCc2ccco2)c1 (stereo unspecified)
31	O=S(=O)(Nc1cccc(-c2nnco2)c1)c1ccc(Cl)cc1
32	CCCN(Cc1cc2cccc(C)c2[nH]c1=O)C(=O)c1cccc(OC)c1
33	COc1cccc(-c2nnc(SCCOc3ccc4c(C)cc(=O)oc4c3)o2)c1
34	CN(CC(=O)NCCc1ccc(S(N)(=O)=O)cc1)CC(=O)Nc1ccc(Cl)cc1

| Assay by compound | 25 | 26 | 27 | 28 | 29 | 30 | 31 | 32 | 33 | 34 |
| --- | --- | --- | --- | --- | --- | --- | --- | --- | --- | --- |
| MT1-MMP act inh | 3 | 2 | 6 | 0 | 1 | -3 | 2 | 1 | 5 | 0 |
| PABP FP inh | 8 | 11 | 2 | 5 | 0 | -8 | 6 | . | 9 | . |
| CSC inhib | 2 | 6 | 5 | -13 | -15 | 4 | 13 | -11 | 0 | -12 |
| Yeast UUG start | -17 | -2 | -10 | -17 | -9 | 3 | -5 | -8 | . | . |
| eIF4H inh | -1 | -4 | 3 | 10 | -4 | 1 | -6 | . | -4 | . |
| Rce1 inhib | i | i | i | i | i | i | . | i | i | . |
| MT1-MMP act inh RFP | 0 | -3 | -2 | -4 | 0 | -2 | -6 | -6 | -3 | -2 |
| Env fusion inh | 12 | -14 | 18 | -1 | 4 | -27 | 4 | . | . | 3 |

In the list so far, eight have a halogen.
1	COc1ccccc1N1CCN(c2cc(=O)n(Cc3ccc(F)cc3)c(=O)[nH]2)CC1
2	CC(O)(c1cccc(F)c1)c1nc(-c2csc3ccccc23)cs1 (stereo unspecified)
4	Cc1cc(NC(=O)CC2Oc3ccccc3NC2=O)ccc1Br (stereo unspecified)
12	CCN(CC(=O)Nc1ccc(Cl)c(S(=O)(=O)N(C)C)c1)CC(=O)NC(C)C
24	O=C(Cc1ccccc1)NC(=S)Nc1ccc(OC(F)F)cc1
25	O=C(O)COc1ccccc1/C=C1\SC(=Nc2ccc(F)cc2)N(c2ccc(F)cc2)C1=O
31	O=S(=O)(Nc1cccc(-c2nnco2)c1)c1ccc(Cl)cc1
34	CN(CC(=O)NCCc1ccc(S(N)(=O)=O)cc1)CC(=O)Nc1ccc(Cl)cc1

| Assay by compound | 1 | 2 | 4 | 12 | 24 | 25 | 31 | 34 |
| --- | --- | --- | --- | --- | --- | --- | --- | --- |
| MT1-MMP act inh | 2 | -1 | 4 | 0 | 5 | 3 | 2 | 0 |
| PABP FP inh | -8 | . | -8 | 2 | -5 | 8 | 6 | . |
| CSC inhib | 50 | . | -2 | 12 | -1 | 2 | 13 | -12 |
| Yeast UUG start | -12 | -16 | 0 | -5 | -28 | -17 | -5 | . |
| eIF4H inh | 6 | . | -9 | 2 | 0 | -1 | -6 | . |
| Rce1 inhib | i | . | i | i | i | i | . | . |
| MT1-MMP act inh RFP | -3 | 0 | 0 | 1 | 2 | 0 | -6 | -2 |
| Env fusion inh | . | 3 | 11 | -2 | -4 | 12 | 4 | 3 |
